Menin MLL FP FL: menin-MLL binding inhibition, fluorescein peptide; Fluorescence polarization, fluorescein-MLL peptide displacement from menin; FP activity change, % at 61.4 µM; 290,000 tested, under 10 active; AID 1766; inconclusive = falling polarisation curve, or a change in total fluorescence; inactive = total fluorescence flat and polarisation flat or rising; no compound was filed as active; the % refers to the polarisation; negative = inhibition;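 note: % of control where 0% means no effect; inhibitors lower the polarisation; unlabelled MLL peptide was the positive control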
TRPV1 PAM: human TRPV1 potentiation; TRPV1-expressing cells, Fluo-8 calcium influx, capsaicin EC20 potentiation; host cell line not named in the record; control for the full effect not named in the record; Q8NER1; 320,000 compounds, 0.02% hits; AID 540277; potentiation, % at 8.33 µM; active means potentiation above 80%; inconclusive means 30% to 80%; inactive means below 30%; note: 0% is about no effect
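TRPV1-expressing cells were cultured overnight at 35.5C and loaded with Fluo-8 calcium dye for 40 to 90 min at room temperature. After a 10 s baseline, compound was added and calcium influx was read kinetically for 3 min (ex 480/em 520 nm).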
gsp antag: antagonists of gsp mutant (McCune-Albright syndrome); gsp-mutant cells, cAMP HTRF, 30 min; control for the full effect not named in the record; Potency, µM (top dose mostly 76.9 µM), without a hit: at the top dose activity change, negative = inhibition, most hits filed as inhibitors; 340,000 compounds, 0.4% hits; active = falling curve of any shape with a large fitted effect; inconclusive = falling curve, mostly with a smaller effect; inactive = flat or rising curve; cell line not stated here;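 note: intracellular cAMP measured with PDE inhibitor Ro 20-1724 present during compound exposure; potency is the fitted concentration of half-maximal effect; % is set by controls: 0 for no effect and ±100 for the full control effect; nearly all actives have a fitted effect of over 65% in size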
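HTRF cAMP read-out (cAMP-d2 plus anti-cAMP antibody-K in lysis buffer, 30 min RT). Before lysis, cells are exposed to compounds with […] for 30 min at 37C in DPBS containing Ca/Mg, BSA and Tween 20.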
gsp ag: gsp mutant agonism; gsp mutant cells, cAMP HTRF, 30 min; control for the full effect not named in the record; Potency, µM (series often up to 76.9 µM), for the others: at the highest dose activation (cAMP increase), actives largely listed as activators; 340,000 compounds, 0.13% hits; active = well fitted activation curve with a large enough effect; inconclusive = small, poorly fitted or top-dose-only effect, or another doubt; inactive = no such curve, though single readings can be large or run the other way; cell line not stated here;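 note: phosphodiesterase inhibitor Ro 20-1724 added with compounds to block cAMP breakdown; potency is the fitted concentration of half-maximal effect; nearly all actives have a fitted effect of over 60% in size; about a fifth of the inactives were tested at one dose only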
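Cells in DMEM/10% FBS with G418 were pretreated with compounds in DMSO plus […] (300 uM stock) for 30 min at 37C. cAMP was measured by HTRF (cAMP-d2 plus anti-cAMP antibody-K) after 30 min at room temperature.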
Sfp inh: inhibitors of Bacillus subtilis Sfp phosphopantetheinyl transferase; Potency, µM, for the others: max response, negative = inhibition, usual class: inhibitors; AID 1490; 310,000 compounds, 3.5% hits; Biochemical Sfp PPTase activity, qHTS; active = well fitted inhibition curve with a large enough effect; inconclusive = small, poorly fitted or top-dose-only effect, or another doubt; inactive = no such curve, though single readings can be large or run the other way;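 note: the enzyme is Sfp with the accession as filed and its product quenches rhodamine fluorescence; potency is the fitted concentration of half-maximal effect; 0% = enzyme reaction without inhibitor and -100% = no enzyme wells; top concentration of the series not given in the record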
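After 15 min at room temperature with compound, 15 nM Sfp received 5 uM rhodamine-CoA plus 12.5 uM BHQ-2-ybbR (50 mM Hepes pH 7.6, 10 mM MgCl2). Rate came from the fluorescence difference over 30 min, ex 525/em 598 nm.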
TRPML1 inh: blocks the human TRPML1 channel; Q9GZU1; activity change, negative = inhibition, % (concentration not given with the values); TRPML1-inducible cells, Ca2+ dye fluorescence, FDSS; stronger effect = lower value; inhibition of EC80 agonist-evoked calcium signal; 390,000 compounds, 0.02% hits; in the data active means activity change below about -50%; inconclusive means about -30% to -50%; inactive means above about -30%;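 note: stimulus is agonist 54-4 at its EC80 concentration; % is set by controls: 0 for no effect and ±100 for the full control effect; the text of the record puts the active cut at -80%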
Target sequence (Q9GZU1 whole entry, looked up): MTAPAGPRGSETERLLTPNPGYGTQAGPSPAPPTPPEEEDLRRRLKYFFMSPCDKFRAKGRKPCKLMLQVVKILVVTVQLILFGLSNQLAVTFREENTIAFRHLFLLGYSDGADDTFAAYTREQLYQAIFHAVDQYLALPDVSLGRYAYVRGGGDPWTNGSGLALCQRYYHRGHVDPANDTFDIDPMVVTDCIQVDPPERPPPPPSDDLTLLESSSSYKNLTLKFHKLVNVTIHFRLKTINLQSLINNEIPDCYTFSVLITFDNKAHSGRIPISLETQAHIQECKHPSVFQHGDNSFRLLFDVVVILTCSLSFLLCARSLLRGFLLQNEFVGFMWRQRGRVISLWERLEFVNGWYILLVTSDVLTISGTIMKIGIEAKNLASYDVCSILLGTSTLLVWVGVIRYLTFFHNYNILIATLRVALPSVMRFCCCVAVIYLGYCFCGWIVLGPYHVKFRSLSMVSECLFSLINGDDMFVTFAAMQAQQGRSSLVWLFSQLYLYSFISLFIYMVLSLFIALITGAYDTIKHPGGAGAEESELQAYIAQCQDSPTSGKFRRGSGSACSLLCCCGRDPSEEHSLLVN
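TRPML1-DL cells, Tet-induced overnight (~16 h, 37 °C) at 1,500 cells/well, were loaded with Ca8 no-wash dye plus quencher for 45-90 min at room temperature. Compounds were pinned during FDSS kinetic reading; agonist 54-4 at EC80 (4 uM final) then added.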
ClpP mod: qHTS Assay for Activators of ClpP | purified B. subtilis ClpP, FRET peptide cleavage, 20 min | Potency, µM (top dose mostly 57.5 µM), for the others: top-dose activity change, negative = active | 340,000 compounds, 1.9% hits; active = well fitted falling curve with a large enough effect; inconclusive = small, poorly fitted or top-dose-only effect; inactive = no such curve, though single readings can be large or run the other way; note: potency is the fitted concentration of half-maximal effect; the source files actives as falling curves though it sought activators and does not explain the sign; nearly all actives have a fitted effect of over 65% in size; many hits overshoot -100%
Target sequence (P80244 whole entry, looked up): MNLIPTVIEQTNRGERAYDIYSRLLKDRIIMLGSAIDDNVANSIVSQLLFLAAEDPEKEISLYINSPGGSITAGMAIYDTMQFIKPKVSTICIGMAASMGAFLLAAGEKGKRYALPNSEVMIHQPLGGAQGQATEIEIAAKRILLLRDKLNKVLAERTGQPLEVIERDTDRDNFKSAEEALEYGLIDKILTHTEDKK
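Purified B. subtilis ClpP, 10 microg/mL final in Tris/HCl pH8 with KCl, BSA, glycerol and Tween-20, cleaved an Abz/nitrotyrosine-quenched decapeptide. Fluorescence (ex 320, em 430) was read at 0 and 20 min at room temperature. Delta was normalized to 5.8 microM ADEP and DMSO/no-enzyme controls.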
* marks the source's active call; other numbers are inactive results; ? = inconclusive; . = no result given; [ ] = dose if it differs, or a comment.

The opening 4 records, to show the layout:
Values in the order – Menin MLL FP FL, TRPV1 PAM, gsp antag, gsp ag, Sfp inh, TRPML1 inh, ClpP mod
C/C(=N\NC(=O)c1nnn(-c2nonc2N)c1-c1cccs1)c1ccncc1
    ., -4.8, -4.5%, -2.1%, 10.9%, 4.6, -6.4%
CCCCN(C(=O)C1CSC2(C)CCC(=O)N12)c1c(N)n(CC(C)C)c(=O)[nH]c1=O (configuration not stated)
    ., -5.0, 17.4%, -11.2%, ., ?, 1.1%
O=c1cc(-c2ccccc2)nc(SCc2ccccc2)[nH]1
    0.4, 28.0, 2.4%, -17.8%, -1.5%, 8.6, -3.9%
O=C(CN(Cc1ccccc1)S(=O)(=O)c1ccc(F)cc1)NCc1ccccn1
    ., 8.9, 2.7%, -12.0%[15.4 µM], -13.9%, -13.6, .

The whole of this part, from the first entry:
Values in the order – Menin MLL FP FL, TRPV1 PAM, gsp antag, gsp ag, Sfp inh, TRPML1 inh, ClpP mod
C/C(=N\NC(=O)c1nnn(-c2nonc2N)c1-c1cccs1)c1ccncc1
    ., -4.8, -4.5%, -2.1%, 10.9%, 4.6, -6.4%
CCCCN(C(=O)C1CSC2(C)CCC(=O)N12)c1c(N)n(CC(C)C)c(=O)[nH]c1=O (configuration not stated)
    ., -5.0, 17.4%, -11.2%, ., ?, 1.1%
O=c1cc(-c2ccccc2)nc(SCc2ccccc2)[nH]1
    0.4, 28.0, 2.4%, -17.8%, -1.5%, 8.6, -3.9%
O=C(CN(Cc1ccccc1)S(=O)(=O)c1ccc(F)cc1)NCc1ccccn1
    ., 8.9, 2.7%, -12.0%[15.4 µM], -13.9%, -13.6, .
O=C(Nc1nnc(C(F)(F)F)s1)C1COc2ccccc2O1 (configuration not stated)
    2.7, 10.3, 35.5µM*, 0.0%, 15.9%, -2.2, -3.2%
Cn1nc(-c2ccccc2)c(N2CCCCC2)cc1=O
    4.5, -19.5, -3.3%, 3.8%, 0.5%, 25.5, 2.2%
O=C(/C=C/c1ccco1)Oc1ccc(C(=S)N2CCOCC2)cc1
    -1.2, -20.7, -3.3%, -2.2%[15.4 µM], -12.4%, 0.3, .
CC1CCCCC1NC(=O)COC(=O)c1cc(=O)c2ccccc2o1 (configuration not stated)
    0.1, -3.4, ., 8.9%[15.4 µM], 8.3%, 0.6, .
CC(C)(C)OC(=O)N1CCC[C@H]1c1nnc(SCc2cccc(Cl)c2)o1
    0.7, -7.8, 2.7%, -11.3%[15.4 µM], 4.0%, -8.4, .
Cc1cc(C)c(NC(=O)CNC(=O)c2ccc3c(=O)n4c(nc3c2)CCC4)c(C)c1
    ., -3.2, 7.5%, 24.3%, ., 11.4, -5.5%
O=C(Nc1ccc(Cc2ccncc2)cc1)C1CCC(N2C(=O)C3C4C=CC(C5CC45)C3C2=O)CC1 (configuration not stated)
    0.1, -41.5, 7.94µM*, ?, -9.7%, -7.6, -2.7%
N/C(CC(=O)Nc1ccc(F)c(Cl)c1)=N\OC(=O)c1cccs1
    2.2, ?, 3.5%, 8.4%[15.4 µM], 11.3%, -3.7, -1.2%
CCOC(=O)c1c(C)nc2c(C)cccn12
    3.0, 10.4, 7.3%, -26.1%, 2.8%, -2.5, -0.1%
CC1CCC/C(=N\NC(=S)NCc2ccccc2)C1 (configuration not stated)
    6.5, -2.8, -4.6%, 19.8%, -21.0%, 1.0, -1.9%
COc1ccc(NC(=O)COC(=O)/C=C/c2cnc3ccccc3n2)cc1
    -2.9, 1.4, -0.1%, -1.6%[15.4 µM], 14.6%, -24.3, .
CC1CCN(C(=O)C2CCC(CNc3c(N4CCCCC4)c(=O)c3=O)CC2)CC1 (configuration not stated)
    -2.0, 1.4, -1.0%, 27.5%, -4.3%, -1.8, -0.8%
O=C(Cn1c(=O)n(-c2cccc(Cl)c2)c(=O)n1CC(=O)N1CCCCC1)N1CCCCC1
    8.5, -26.0, -1.4%, 5.3%, 10.6%, 12.3, 1.3%
CC(C)(C)c1ccc(-n2ncc3c2CCCC3NC(=O)C2=NNC(=O)CC2)cc1 (configuration not stated)
    -3.8, -6.5, -12.0%, 24.4%, -10.6%, 0.8, -1.4%
COC(=O)C/C(C)=N/Nc1ccc(S(=O)(=O)N2CCCC2)cc1[N+](=O)[O-]
    -0.2, -5.7, -16.3%, -29.3%, -13.0%, -4.4, 1.3%
Cc1ccc(S(=O)(=O)N(CC(O)CN2C(=O)NC(C)(C)C2=O)c2cccc(C)c2)cc1 (configuration not stated)
    5.4, 14.1, 4.8%, -13.3%[15.4 µM], 10.8%, -13.7, .
COc1ccc(O)c(C(=O)c2cc(C#N)c(=O)n(-c3ccc(Cl)cc3)c2)c1
    ?, -4.4, -21.2%, -13.7%, 14.4%, 0.8, 27.4%
O=C(Nc1ccc2c(c1)OCO2)c1cnccn1
    -3.8, -5.3, -0.6%, 7.2%[15.4 µM], -0.6%, 15.7, .
OC(CNCc1ccc(Cl)cc1)C(F)(F)F (configuration not stated)
    -1.3, 5.4, 7.5%, -45.8%[inhibitor], 22.1%, -2.4, 2.2%
CCNC(=O)c1c(NC(C)=O)sc2c1CCCC2
    4.5, -3.1, 4.7%, -1.2%, 6.5%, -13.3, -1.7%
CCS(=O)(=O)Nc1cccc(C(=O)O)c1
    0.3, 13.6, 11.9%, -30.1%[inhibitor], 7.3%, ., -2.4%
CCCOc1ccc(C(=O)NC(C)C(=O)O)cc1 (configuration not stated)
    2.1, -0.8, 11.3%, 4.7%, -4.0%, 17.7, -1.3%
CCS(=O)(=O)c1ccc(O)c(NC(=O)Nc2ccccc2OC)c1
    7.9, ?, -1.0%, -3.7%[15.4 µM], 7.3%, 8.1, .
COC(=O)[C@]1(C)N[C@H](CN(C)C(=O)Nc2ccc(C(F)(F)F)cc2)[C@@H]2C(=O)N(C)C(=O)[C@@H]21
    ., ., 8.3%, ., ., 18.0, 0.4%
Cc1cc(-c2ccccc2)nc(N2CCC(C(=O)NC(C)C)CC2)n1
    6.8, 2.1, 1.2%, -50.1%[inhibitor], 25.7%, -25.1, ?
NC(=O)Cn1cc(/C=N\NS(=O)(=O)c2ccc(Cl)cc2)c2ccccc21
    2.3, 4.8, -3.6%, -21.7%, 4.5%, -26.6, -0.5%
O=C(CSc1ncnc2ccccc12)Nc1ccc(N2CCOCC2)cc1
    0.4, 7.8, ., ., 0.0%, ., .
O=S(=O)(c1ccc(F)cc1)N1CN(Cc2ccco2)c2nc3ccccc3nc21
    ?, -5.1, -24.6%, ?, 56.2µM*, 2.3, ?
COc1cc(/C=N/Nc2nc(C)cc(C)n2)ccc1OC(=O)c1ccco1
    2.9, 6.9, -0.7%, 39.1%, 4.1%, -10.0, -2.1%
O=C(COc1ccc(Br)cc1F)N1CCN(c2ncccn2)CC1
    -3.4, 12.4, 4.8%, -12.3%, 1.9%, -14.0, .
O=C(O)c1cc(N/N=C/C=C/c2ccccc2)ccc1Cl
    4.2, 9.6, ?, -14.9%[15.4 µM], -6.8%, -8.4, .
CCc1cccc(C)c1NC(=O)C1=C(C(=O)O)CCCC1
    -0.4, 10.5, -2.9%, 0.4%, 11.6%, -10.2, 0.1%
CC1CCN(S(=O)(=O)c2ccc3c(c2)c(=O)c(C(=O)NCc2ccco2)cn3C)CC1
    -0.8, -6.5, -14.9%, -15.2%[15.4 µM], 12.4%, 10.6, -1.2%
COc1ccccc1NC(=S)Nc1cccc2cnccc12
    -1.0, 3.2, -4.9%, 15.7%[15.4 µM], 44.7µM*, -9.6, -2.3%
CSc1ccccc1NC(=O)CSc1nnnn1-c1ccccc1SC
    3.4, -2.3, -11.0%, -8.6%, 6.7%, 0.2, 0.1%
Cc1ccccc1OCCC(=O)Nc1ccc2c(C)cc(=O)oc2c1
    ., -13.9, -2.4%, 8.4%, 15.4%, 6.8, 3.4%
O=C(OCc1c(F)cccc1Cl)c1cnc2ccccc2n1
    -3.5, -15.7, 3.7%, -5.7%[15.4 µM], -2.4%, 1.4, .
O=C(Nc1ccccc1C(=O)NCc1ccco1)c1ccco1
    3.2, 1.7, 1.6%, 17.8%, -6.9%, -2.0, -10.5%
O=C(COC(=O)c1ncc(Cl)c(Cl)c1Cl)NC1CCS(=O)(=O)C1 (configuration not stated)
    ., 18.2, -3.7%, 12.7%[15.4 µM], ., -18.7, .
O=C(Nc1cccc2ccccc12)/C(=C\c1cccc([N+](=O)[O-])c1)NC(=O)c1cccs1
    0.1, 16.6, 20.0%, -10.4%, 18.1%, -21.5, 1.2%
COc1ccc(S(=O)(=O)NC(CC(C)C)C(=O)NC(C)c2cccs2)cc1 (configuration not stated)
    ., -1.7, -0.3%, 11.8%, ., -2.9, 3.2%
O=C(Nc1ccc(C(=O)O)cc1)/C(=C\c1ccc2c(c1)OCO2)NC(=O)c1ccccc1
    -1.3, -18.6, 2.8%, 1.9%, 12.2%, -1.4, .
O=C1CCc2cc(S(=O)(=O)Nc3ccccc3)ccc2N1
    ., 1.7, 10.1%, -0.1%, ., 5.9, 2.2%
O=C(CSc1nccn(-c2ccc(Br)cc2)c1=O)Nc1ccccc1F
    ., 3.5, 6.5%, -0.7%, ., 6.2, -12.0%
CCOC(=O)/C(C(=O)Nc1ccccc1Cl)=C1/NC(C)(C)Cc2ccccc21
    2.2, -2.1, -4.9%, -11.0%, -5.1%, 14.5, 0.2%
Cc1ccc2nc3c(cc2c1)c(NC(=O)c1cccnc1)nn3C
    -4.9, 4.8, -1.9%[15.4 µM], -3.2%, -3.3%, -16.0, -1.5%
COc1ccccc1CC(=O)Nc1ccc(S(=O)(=O)N2CCOCC2)cc1
    -2.9, -3.2, 3.9%, ?, -13.6%, -1.5, .
Cc1c(/C=C/C(=O)c2ccc(Cl)s2)cnn1C
    4.8, -7.8, -13.4%, -13.4%, 9.7%, -4.3, -7.1%

Assay outcomes: PubChem BioAssay, National Center for Advancing Translational Sciences (NCATS)

Compounds as they come. About 4.9% of those tested had a hit in this group.
